GLA inh pH 4.5 = qHTS Assay for Inhibitors of Human alpha-Galactosidase at pH 4.5; purified enzyme, 4-MU-alpha-Gal fluorescence, pH 4.5; 230,000 tested, under 10 active; activity change, negative = inhibition, % at 105 µM; Alpha-galactosidase A (Homo sapiens), P06280; AID 1467, 2008; inconclusive = small, poorly fitted or top-dose-only inhibition, or a rising curve; inactive = flat fitted curve, though single readings scatter; no compound was filed as active;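 also: 0% = full activity with enzyme and -100% = basal without enzyme; dose as in the result columns while the protocol names 77 µM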
Rango dissoc inh = qHTS Assay for Inhibitors of RanGTP induced Rango (Ran-regulated importin-beta cargo) - Importin beta complex dissociation. Snurportin-1 (Homo sapiens) + GTP-binding nuclear protein Ran (Homo sapiens) + Importin …. Biochemical FRET Rango-importin beta, RanGTP-induced dissociation. Potency, µM (series often up to 46.1 µM), inactives show at the top dose activity change, negative = inhibition. hit rate 0.071% among 340,000. AID 540253, 2011; active means falling FRET ratio curve, often poorly fitted, with flat reads before Ran was added; inconclusive means other falling curves, or compound fluorescence or quenching; inactive means flat or rising ratio curve;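 also: potency is read from the fitted curve at half-maximal effect; % of control where 0% means no effect; nearly all actives have a fitted effect of over 45% in size; -100% = wells without RanGTP and RCC1; the record marks most hits as doubtful in a second field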
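FRET read at 45 min, room temperature: inhibitors block the CFP/YFP signal rise when RanGTP (0.6 uM Ran, 2 mM GTP, 0.2 uM RCC1) frees Rango (0.1 uM) from importin beta (0.25 uM). Pre-read after 5 min compound exposure flags interference.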
miR-21 reporter = qHTS Assay for Modulators of miRNAs and/orActivators of miR-21 | HeLa miR-21 FLuc reporter, luciferase, 48 h | Potency, µM (highest dose often 38.3 µM), inactives show top-dose reporter change, positive = more light | 340,000 tested, under 10 active | AID 2288, 2010; active = well fitted rising curve with a large enough effect; inconclusive = small, poorly fitted or top-dose-only effect; inactive = no such curve, though single readings can be large or run the other way;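 also: % of control where 0% means no effect; miR-21 action dims this reporter so a rising signal means less miR-21 action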
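Compounds were titrated across several concentrations (up to approximately 40 uM) and incubated 48 hours with HeLa miR-21-FLuc reporter cells (miR-21 target sequence downstream of FLuc, endogenous miR-21). Readout was firefly luciferase luminescence after lytic detection reagent.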
Rango complex inh = qHTS Assay for Inhibitors of Rango (Ran-regulated importin-beta cargo) - Importin beta complex formation; hit rate 0.031% among 340,000; Potency, µM (highest dose often 92.2 µM), for the others: top-dose inhibition of complex formation; Rango CFP/YFP FRET sensor + importin beta, 45 min; AID 540263, 2011; active = rising FRET ratio curve, often small or poorly fitted; inconclusive = mostly compound fluorescence or quenching in the first reads; inactive = flat curves in all reads;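 also: potency is read from the fitted curve at half-maximal effect; 0% = DMSO wells and 100% = buffer wells lacking importin beta; nearly all actives have a fitted effect of over 15% in size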
Target sequence (Q14974 whole entry, looked up): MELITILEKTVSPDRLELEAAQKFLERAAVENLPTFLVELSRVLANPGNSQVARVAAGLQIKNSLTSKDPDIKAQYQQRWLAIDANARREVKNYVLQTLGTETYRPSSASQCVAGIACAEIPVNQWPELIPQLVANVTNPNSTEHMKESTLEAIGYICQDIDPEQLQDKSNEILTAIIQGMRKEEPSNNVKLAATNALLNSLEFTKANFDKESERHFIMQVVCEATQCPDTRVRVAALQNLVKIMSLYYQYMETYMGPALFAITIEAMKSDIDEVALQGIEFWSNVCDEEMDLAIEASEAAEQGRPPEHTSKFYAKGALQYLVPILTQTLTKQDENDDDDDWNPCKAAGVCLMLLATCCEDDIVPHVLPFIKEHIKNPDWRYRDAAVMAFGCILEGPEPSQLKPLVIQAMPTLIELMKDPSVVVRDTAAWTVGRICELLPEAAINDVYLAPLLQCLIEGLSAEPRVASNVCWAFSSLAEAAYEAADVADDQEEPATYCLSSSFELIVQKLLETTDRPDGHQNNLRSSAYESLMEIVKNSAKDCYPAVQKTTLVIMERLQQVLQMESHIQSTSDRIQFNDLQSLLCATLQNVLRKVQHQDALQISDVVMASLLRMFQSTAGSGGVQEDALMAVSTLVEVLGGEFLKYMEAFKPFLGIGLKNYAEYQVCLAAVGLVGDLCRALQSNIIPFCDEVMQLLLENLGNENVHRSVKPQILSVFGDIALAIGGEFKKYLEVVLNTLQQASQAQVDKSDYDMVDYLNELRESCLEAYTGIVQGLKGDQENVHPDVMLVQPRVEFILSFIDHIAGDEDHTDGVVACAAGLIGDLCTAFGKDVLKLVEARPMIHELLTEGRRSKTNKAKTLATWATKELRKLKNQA
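FRET biosensor Rango (snurportin 1 IBB between N-terminal EYFP and C-terminal Cerulean), 50 nM in PBS/1 mM DTT/0.02% Tween-20/0.1% BSA, preincubated 5 min RT with compound; 0.125 microM importin beta added, 45 min RT, CFP/YFP FRET ratio read.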
* hit, by the source's call. Not all compounds are listed (hit frequency here may not be typical).

For CCn1c(=O)c2sccc2n2c(CCCC(=O)NC3CCN(Cc4ccccc4)CC3)nnc12 the results were Rango dissoc inh 0%, miR-21 reporter 1% and Rango complex inh 3.1%.
CC(C)C(NC(=O)c1ccccc1F)C(=O)NCCc1ccccn1 (stereo unspecified) was read as GLA inh pH 4.5 1, Rango dissoc inh 10%, miR-21 reporter -2% and Rango complex inh 4.9%.
`CCOC(=O)c1ccccc1OC(=O)CS(=O)c1ccccc1[N+](=O)[O-]` (stereo unspecified) gave GLA inh pH 4.5 4, Rango dissoc inh -2%, miR-21 reporter 0% and Rango complex inh 0.3%.
O=C(NCCc1ccccc1)C1=CCN(S(=O)(=O)c2ccccc2)CC1 was read as Rango dissoc inh 16%, miR-21 reporter -23% and Rango complex inh 0.9%.
For O=C1C=C(c2ccc3[nH]ccc3c2)C[C@@H](c2ccc(F)cc2)C1 the results were Rango dissoc inh 10% and Rango complex inh 1.0%.
CCc1cc2cc(C)c(C)cc2nc1SCC(=O)NNC(=O)c1ccco1 was read as GLA inh pH 4.5 0, Rango dissoc inh 8%, miR-21 reporter -4% and Rango complex inh -3.7%.
For CCCCN(C(=O)c1ccc2c(c1)OCCO2)c1c(N)n(CCCC)c(=O)[nH]c1=O the results were Rango dissoc inh -5% and Rango complex inh -0.8%.
Screening Cc1nn(Cc2ccccc2Cl)c(C)c1NC(=O)Cn1nc([N+](=O)[O-])c(Cl)c1C returned GLA inh pH 4.5 4, Rango dissoc inh 1%, miR-21 reporter -7% and Rango complex inh -0.5%.
CC(=O)Nc1ccc(S(=O)(=O)NNC(=O)c2ccc(C)cc2)cc1 was read as GLA inh pH 4.5 4, Rango dissoc inh -4%, miR-21 reporter 0% and Rango complex inh -1.3%.
CN(C)CCCN(C(=O)c1ccc(S(=O)(=O)N2CCc3ccccc32)cc1)c1nc2c(Cl)cccc2s1 was read as Rango dissoc inh -11%, miR-21 reporter 10% and Rango complex inh -1.0%.
CC(C)(C)OC(=O)NCCCCCC(=O)N/N=C/c1coc2ccccc2c1=O was read as GLA inh pH 4.5 7, Rango dissoc inh -3%, miR-21 reporter -20% and Rango complex inh 0.8%.
CNC(=O)C(=O)Nc1c(C)cc(C)cc1C was read as GLA inh pH 4.5 3, Rango dissoc inh -12%, miR-21 reporter 0% and Rango complex inh -1.2%.
For COc1ccc(C(=O)NNC(=O)C(=O)NC2CCCCC2)cc1 the results were Rango dissoc inh -1%, miR-21 reporter -4% and Rango complex inh -1.1%.
For CC(C)[C@H](NC(=O)N1CCn2c1nc1ccccc12)C(=O)NCCc1ccccc1 the results were Rango dissoc inh -13%, miR-21 reporter 10% and Rango complex inh -1.6%.
For Cc1cc2sc3nc(=O)n(-c4ccccc4)c(=O)n3c2cc1C the results were GLA inh pH 4.5 5, Rango dissoc inh -1%, miR-21 reporter -75% and Rango complex inh -1.2%.
For c1csc(-c2csc3nc(CN4CCOCC4)nc(NCc4ccc5c(c4)OCO5)c23)c1 the results were GLA inh pH 4.5 -12, Rango dissoc inh 13%, miR-21 reporter 5% and Rango complex inh -1.7%.
Cc1ccc(NC(=O)CS(=O)CC(=O)N(CC(=O)NC2CCCC2)c2cc(C)ccc2C)cc1 (stereo unspecified) was read as GLA inh pH 4.5 3, Rango dissoc inh 5%, miR-21 reporter -5% and Rango complex inh -0.8%.
For O=C(Nc1ccccc1)C1CC2CCC1C2 (stereo unspecified) the results were Rango dissoc inh -13%, miR-21 reporter -14% and Rango complex inh 0.0%.
For O=C1CCN(S(=O)(=O)c2ccccc2)CCN1CCOCc1ccc(F)cc1 the results were GLA inh pH 4.5 -1, Rango dissoc inh 3%, miR-21 reporter -4% and Rango complex inh 0.1%.
`COc1cccc(-c2nc(C(N)=O)c3[nH]c(=O)n(-c4ccccc4)c3n2)c1OC` gave GLA inh pH 4.5 5, Rango dissoc inh -7%, miR-21 reporter -10% and Rango complex inh -2.4%.

In the list so far, two contain a thiophene ring, fused or not.
For CCn1c(=O)c2sccc2n2c(CCCC(=O)NC3CCN(Cc4ccccc4)CC3)nnc12 the results were Rango dissoc inh 0%, miR-21 reporter 1% and Rango complex inh 3.1%.
For c1csc(-c2csc3nc(CN4CCOCC4)nc(NCc4ccc5c(c4)OCO5)c23)c1 the results were GLA inh pH 4.5 -12, Rango dissoc inh 13%, miR-21 reporter 5% and Rango complex inh -1.7%.

(further entries)
CC(C)(C)c1ccc(C(=O)CSc2ncn[nH]2)cc1 was read as GLA inh pH 4.5 -4, Rango dissoc inh 2%, miR-21 reporter -30% and Rango complex inh 7.7%.
For COc1cccc(C(=O)NC2CCCc3c2cnn3-c2cc(C)cc(C)c2)c1 (stereo unspecified) the results were Rango dissoc inh -10%, miR-21 reporter 4% and Rango complex inh 1.9%.
`O=C(c1ccco1)c1cn(CC(=O)N2CCCCC2)c2ccccc12` gave GLA inh pH 4.5 -23, Rango dissoc inh -6%, miR-21 reporter -3% and Rango complex inh 4.5%.
O=C(c1ccco1)N1CCN(Cc2cc(=O)c(OCc3ccccc3F)co2)CC1 was read as Rango dissoc inh -1% and Rango complex inh -0.6%.
Screening COc1cc(OC)c(C(=O)OCC(=O)NC23CC4CC(CC(C4)C2)C3)cc1OC returned Rango dissoc inh -18% and Rango complex inh -0.5%.
`COc1ccc(-n2c(N)cc(=O)[nH]c2=O)cc1` gave GLA inh pH 4.5 3, Rango dissoc inh 13%, miR-21 reporter -4% and Rango complex inh -1.8%.
For Cc1ccc(C)c(NC(=O)C(c2ccccc2)N2CCN(CC(=O)N3CCOCC3)CC2)c1 (stereo unspecified) the results were Rango dissoc inh 9% and Rango complex inh -3.4%.
N#CCCN(C(=O)CN1CCN(S(=O)(=O)c2ccc3c(c2)OCCO3)CC1)c1ccc(F)cc1 was read as Rango dissoc inh -14% and Rango complex inh -3.9%.
Screening COc1ccc(NS(=O)(=O)c2cc(NC(=O)c3ccc(=O)[nH]c3)ccc2N2CCCC2)cc1 returned Rango dissoc inh -24%, miR-21 reporter 13% and Rango complex inh 5.6%.
COc1ccccc1N1CCN(C(=O)Cc2c(C(=O)O)[nH]c3ccc(Cl)cc23)CC1 was read as GLA inh pH 4.5 12, Rango dissoc inh 7%, miR-21 reporter -4% and Rango complex inh 4.5%.
Screening C[C@H]1CCC(=O)N([C@H](COc2ccccc2)Cc2ccccc2)CC1 returned Rango dissoc inh 8%, miR-21 reporter 4% and Rango complex inh 2.3%.
`Cc1ccccc1CC(=O)N1CCN(S(=O)(=O)c2ccc(Cl)s2)CC1` gave Rango dissoc inh 0% and Rango complex inh 2.0%.
For C=CCNc1nnc(SCC(=O)N2CCCCC2)c2ccccc12 the results were GLA inh pH 4.5 -4, Rango dissoc inh -13%, miR-21 reporter -13% and Rango complex inh inconclusive.
Screening O=C(c1cccs1)N(CC1CCCO1)c1nc(-c2ccccc2)cs1 (stereo unspecified) returned GLA inh pH 4.5 9, Rango dissoc inh 1%, miR-21 reporter -4% and Rango complex inh -0.5%.
Screening Cc1ccc(NS(=O)(=O)c2cccc(C(=O)NCCCN3CCOCC3)c2)cc1 returned Rango dissoc inh 3% and Rango complex inh inconclusive.
For Cn1nnc2cc(C(=O)NC(C)(C)C)ccc21 the results were GLA inh pH 4.5 -1, Rango dissoc inh -1%, miR-21 reporter -5% and Rango complex inh -3.7%.
Screening CC1C(=O)NC(=O)C1c1ccccc1 (stereo unspecified) returned GLA inh pH 4.5 0, Rango dissoc inh 20%, miR-21 reporter 3% and Rango complex inh -2.3%.
For NC(=O)c1cccc2ccccc12 the results were GLA inh pH 4.5 -2, Rango dissoc inh 9%, miR-21 reporter -1% and Rango complex inh -3.0%.
`Cc1cccc2c3c([nH]c12)C(=O)CC(C)(C)S3` gave GLA inh pH 4.5 -14, Rango dissoc inh inconclusive, miR-21 reporter -1% and Rango complex inh inconclusive.
`O=C(CC1NCCc2ccccc21)Nc1ccc(Cl)cc1` (stereo unspecified) gave GLA inh pH 4.5 10, Rango dissoc inh 6%, miR-21 reporter -3% and Rango complex inh -1.2%.
For CC(=O)c1cccc(NC(=O)COc2cc3oc(=O)c(CC(C)O)c(C)c3cc2Cl)c1 (stereo unspecified) the results were GLA inh pH 4.5 -4, Rango dissoc inh 11%, miR-21 reporter 8% and Rango complex inh 3.5%.
`COc1ccc(NC(=O)CSCC(=O)N2c3ccccc3CCc3ccccc32)cc1` gave GLA inh pH 4.5 -5, Rango dissoc inh -6%, miR-21 reporter -2% and Rango complex inh 8.8%.
`Cc1cccnc1NC(=O)C(C)N1C(=O)c2ccccc2C1=O` (stereo unspecified) gave GLA inh pH 4.5 0, Rango dissoc inh 1%, miR-21 reporter 0% and Rango complex inh 1.8%.
`Cc1nc2ncnn2c(C)c1Cc1cccc(F)c1` gave GLA inh pH 4.5 6, Rango dissoc inh 3%, miR-21 reporter -12% and Rango complex inh 0.1%.
CCOC(=O)CSc1nnc(-c2cccc(Br)c2)o1 was read as GLA inh pH 4.5 2, Rango dissoc inh -8%, miR-21 reporter 0% and Rango complex inh 6.5%.
COC(=O)CNC(=O)COC(=O)c1cc(F)c(F)cc1Cl was read as GLA inh pH 4.5 13, Rango dissoc inh -8%, miR-21 reporter -2% and Rango complex inh -1.1%.

Molecules listed so far with a tert-butyl group, in the order listed:
CC(C)(C)OC(=O)NCCCCCC(=O)N/N=C/c1coc2ccccc2c1=O was read as GLA inh pH 4.5 7, Rango dissoc inh -3%, miR-21 reporter -20% and Rango complex inh 0.8%.
CC(C)(C)c1ccc(C(=O)CSc2ncn[nH]2)cc1 was read as GLA inh pH 4.5 -4, Rango dissoc inh 2%, miR-21 reporter -30% and Rango complex inh 7.7%.
For Cn1nnc2cc(C(=O)NC(C)(C)C)ccc21 the results were GLA inh pH 4.5 -1, Rango dissoc inh -1%, miR-21 reporter -5% and Rango complex inh -3.7%.

At a glance, some entries already given.
`COc1ccc(NC(=O)CSCC(=O)N2c3ccccc3CCc3ccccc32)cc1` gave GLA inh pH 4.5 -5, Rango dissoc inh -6%, miR-21 reporter -2% and Rango complex inh 8.8%.
`Cc1cccnc1NC(=O)C(C)N1C(=O)c2ccccc2C1=O` (stereo unspecified) gave GLA inh pH 4.5 0, Rango dissoc inh 1%, miR-21 reporter 0% and Rango complex inh 1.8%.
`Cc1nc2ncnn2c(C)c1Cc1cccc(F)c1` gave GLA inh pH 4.5 6, Rango dissoc inh 3%, miR-21 reporter -12% and Rango complex inh 0.1%.
